Hsc70 ATP site – small molecules displacing fluorescent ligand from Hsc70 – biochemical, fluorescence polarization, primary screen (AID 568) | Hsc70 fluorescence polarization, probe displacement; higher % means a stronger effect; strong numbers were not always called active | displacement, % at 20 µM; hits with a dose series show IC50 in µM | 83,000 tested, under 10 active;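 active = displacement above 50% without optical interference and an IC50 on retest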;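 note: ATPase domain with a fluorescein-tagged ATP probe; 0% = vehicle and 100% = excess ADP; read after one hour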
MT1-MMP promoter – MT1-MMP gene expression reporter suppression – cell-based, luciferase reporter, luminescence (AID 618); MT1-MMP promoter luciferase reporter cells, luminescence; calls from a first round at 10 µM; hits with a dose series show EC50 in µM; hit rate 0.62% among 87,000;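 active = over half of the reporter light lost at 10 µM or EC50 under 50 µM; inactive = the rest and hits that failed the dose series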;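 note: actives suppress MT1-MMP promoter-driven transcription so potencies describe inhibitors; HT1080 fibrosarcoma cells; overnight exposure; toxic or luciferase-blocking compounds were not removed from the actives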
WNV protease inh – inhibitors of West Nile virus NS2B-NS3 protease. AID 577. hit rate 0.18% among 65,000. WNV NS2B-NS3 protease, fluorogenic substrate Ex360/Em465; active compounds read low. z-score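 (tested at a level between 10 and 100 µM)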;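 active = z-score at -3 or under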;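 note: score is relative to mean and spread of the compound wells of a plate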
Target sequence (P06935 1371-1501 limits assumed): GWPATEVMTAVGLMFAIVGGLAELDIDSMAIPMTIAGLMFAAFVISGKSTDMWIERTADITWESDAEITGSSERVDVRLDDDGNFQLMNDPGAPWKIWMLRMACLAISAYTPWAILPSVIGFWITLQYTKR
Target sequence (P06935 1502-1679 limits assumed): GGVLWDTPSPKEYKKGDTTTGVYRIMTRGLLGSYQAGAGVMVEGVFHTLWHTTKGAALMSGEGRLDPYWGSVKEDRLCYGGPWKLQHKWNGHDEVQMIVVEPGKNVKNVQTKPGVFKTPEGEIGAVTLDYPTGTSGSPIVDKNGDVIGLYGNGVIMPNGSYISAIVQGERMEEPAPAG
* marks the source's active call; other numbers are inactive results; i = inactive; / = not tested or not shown.

| mol | MT1-MMP promoter | Hsc70 ATP site | WNV protease inh |
| --- | --- | --- | --- |
| Cn1c(/N=C/c2c(O)ccc3ccccc23)nc2ccccc21 | i | 44% | -0.42 |
| Cc1ccc(N2C(=O)C3N=NN(CC(=O)N4N=C(c5cccc6ccccc56)CC4c4ccccc4)C3C2=O)cc1 (stereo unspecified) | i | -3.1% | / |
| CCN1C(=O)/C(=C/N(C)C)c2ccccc21 | i | 3.4% | 0.02 |
| Nc1c(NCc2ccccc2F)c(=O)[nH]c(=O)n1Cc1ccccc1 | i | 10% | 0.82 |
| CC(C)(C)c1[nH]nc2c1C(c1ccncc1)C(C#N)=C(N)O2 (stereo unspecified) | i | -3.6% | 1 |
| O=C1CC(c2ccc(S(=O)(=O)NCCOc3ccccc3)cc2)CN1 (stereo unspecified) | i | 6.2% | -0.14 |
| Cn1c(SCC(=O)Nc2cccc3ccccc23)nc(O)cc1=O | i | -0.7% | -0.32 |
| CC1CCN(c2nc3c(c(=O)[nH]c(=O)n3C)n2CCSc2ncccn2)CC1 | i | 0.7% | -1 |
| Cc1nn(-c2ccccc2)c(Cl)c1C(=O)NCC(=O)O | i | 3.1% | -0.92 |
| COc1ccc(Cl)cc1C(=O)Nc1cc(=O)n(C)c(=O)n1C | i | 5.8% | -1.2 |
| Cn1ccnc1SCC(=O)NC12CC3CC(CC(C3)C1)C2 | i | 2.8% | -0.43 |
| Cc1cc(C)c2cc(C#N)c(N3CCCN(S(=O)(=O)c4ccccc4)CC3)nc2c1 | i | -0.6% | / |
| Cc1cc(=O)oc(C)c1C(=O)NCc1ccccn1 | i | -2.6% | 0.21 |
| O=[N+]([O-])c1ccc(Cl)cc1Sc1nc2ccccc2o1 | i | -1.6% | / |
| Cc1cc(C)n(-c2ccc(C(=O)OCC(=O)Nc3ccc(S(=O)(=O)N4CCCCC4)cc3)cc2)n1 | i | 2.2% | / |
| O=C1CC(=C2c3ccccc3-c3ccccc32)C(=O)N1CCCCN1CCN(c2ccccc2)CC1 | i | -1.2% | / |
| Cc1nc(S(=O)(=O)NC2CCCCC2)c(C#N)c(C)c1Cl | i | -0.3% | 0.16 |
| N#Cc1nc(-c2ccco2)oc1NCc1cccnc1 | i | 1.0% | 0.59 |
| CCn1c(=O)cc(SCC(=O)N2CCCCC2)c2ccccc21 | i | -3.1% | -0.94 |
| CCOC(=O)CNC(=O)CNC(=O)Cn1ccc2ccccc2c1=O | i | -1.3% | / |
| CCCCCCc1cc2cc(C(=O)NC)c(=N)oc2cc1O | i | 99% | 0.78 |
| COc1ccc(-c2nc3cc(NC(=O)Cc4ccc(OC)c(OC)c4)ccc3o2)cc1 | i | -13% | 0.72 |
| O=S(=O)(Nc1cc(Cl)ccc1N1CCCCC1)c1cccs1 | i | -29% | -1.9 |
| COc1ccc(C)cc1NC(=O)CSc1nnc(COc2ccc(Cl)cc2)n1Cc1ccco1 | i | -0.1% | 2.1 |
| COC(=O)c1ccc(COC(=O)C23CC4CC(CC(O)(C4)C2)C3)o1 | i | -2.3% | -1 |

Following part:
| mol | MT1-MMP promoter | Hsc70 ATP site | WNV protease inh |
| --- | --- | --- | --- |
| COc1ccc(C(=O)Cc2ccc(OC)c(OC)c2)c(OC)c1 | i | 2.6% | / |
| Cc1nonc1OCC(C)(COc1nonc1C)NC(=O)c1ccc(Cl)cc1 | i | -5.3% | / |
| COc1ccc(C(=O)n2ccc(C)n2)cc1Br | i | -1.3% | -0.37 |
| O=c1[nH]cnc2c1ncn2[C@@H]1O[C@H](CO)[C@@H](O)[C@H]1O | i | 4.9% | / |
| COC(=O)c1cnn2c(C(F)(F)F)cc(-c3ccccc3)nc12 | i | 1.5% | / |
| COc1cc(C(=O)N2c3ccccc3CC2C)cc(OC)c1OC (stereo unspecified) | i | 3.1% | 0.07 |
| Oc1[nH]c2ccccc2c1C1=NCCCC1 | i | -3.2% | -1.7 |
| COc1ccc2c(c1)CCc1c(C(=O)Nc3cc(C)n(Cc4ccc(Cl)cc4)n3)noc1-2 | i | -6.8% | -1.1 |
| COc1ccc(-c2nnn(CC(=O)N(CC(=O)NC3CCCC3)Cc3cccs3)n2)cc1OC | i | 131% | 1.5 |
| CCCCNC(=O)C1CCN(C/C(C)=C/c2ccccc2)CC1 | i | -1.8% | / |
| Cc1cc(C)c(NC(=O)Cn2c(=O)n(Cc3ccco3)c(=O)c3ccccc32)c(C)c1 | i | -2.0% | 0.34 |
| NS(=O)(=O)c1ccc(NC=C2C(=O)OC3(CCCCC3)OC2=O)cc1 | i | -4.3% | -1.1 |
| Cc1ccc(C(=O)CC2(O)C(=O)N(C)c3ccccc32)o1 (stereo unspecified) | i | -1.9% | -0.14 |
| O=C(C1CCC1)N1CCc2cc(S(=O)(=O)NCC3COc4ccccc4O3)ccc21 (stereo unspecified) | i | -2.3% | 0.17 |
| O=C(NCc1ccco1)c1cc(-c2ccc3c(c2)OCO3)on1 | i | -8.4% | 1.1 |
| O=C(O)C1CC=CCC1C(=O)N1CCN(c2nc(-c3ccccc3)c3ccccc3n2)CC1 (stereo unspecified) | i | 132% | -0.02 |
| CCc1cccc(C)c1N(C(=O)Cn1c(CO)nc2ccccc21)C(C)COC (stereo unspecified) | i | -6.5% | / |
| COC(=O)c1ccc(S(=O)(=O)N2C3CCC2CC(NC(=O)C2CC2)C3)cc1 (stereo unspecified) | i | -1.7% | / |
| C#CCOc1nc(OCC#C)nc(OCC#C)n1 | i | 9.3% | -0.06 |
| COc1ccc(C)cc1-n1c(N)c(C#N)c(C#N)c1-c1ccc(OC)c(OC)c1OC | i | 3.5% | -0.51 |
| CCCCCCC1CCC(C(=O)NC(CCSC)C(=O)NC(C(=O)OC)C(C)C)CC1 (stereo unspecified) | i | -0.4% | / |
| CCOCCCn1c(=S)[nH]c2cc(C(=O)N3CCC(C(N)=O)CC3)ccc2c1=O | i | -3.3% | 1.1 |
| CC(=O)C1C(c2ccccc2)c2c(n[nH]c2C)CC1(C)O (stereo unspecified) | i | -0.2% | / |
| CCCCN1C(=O)NC(NC(=O)c2ccco2)(C(F)(F)F)C1=O (stereo unspecified) | i | -0.7% | / |
| CC1(C)CC(=O)C(C=NCC2CCN(C(=O)Nc3ccccc3)CC2)=C(O)C1 | i | -6.7% | -1 |

Additional structures
| mol | MT1-MMP promoter | Hsc70 ATP site | WNV protease inh |
| --- | --- | --- | --- |
| Cc1noc(C)c1S(=O)(=O)N1CCC(C(=O)Nc2ccccn2)CC1 | i | 2.2% | -0.49 |
| COc1ccc(NC(=O)CSc2ccccc2)c(OC)c1 | i | -2.2% | / |
| CCCN1CCC(NC(=O)Nc2ccc(OC)c(OC)c2)CC1 | i | 5.6% | 0.43 |
| CCc1ccc(-c2nc(CN3CCC(C(=O)NCCc4ccc(OC)c(OC)c4)CC3)c(C)o2)cc1 | i | -1.1% | 1.1 |
| Cn1c(Cl)nc2c1c(=O)n(Cc1cccc(Br)c1)c(=O)n2C | i | 2.2% | 0.76 |
| COC(=O)c1cc(OC)c(OC)cc1-n1cnc2cc(OC)c(OC)cc2c1=O | i | 3.3% | -1 |
| O=C(O)CCN1C(=O)c2ccccc2C1=O | i | -1.0% | -0.42 |
| CC(C)CC(=O)Nc1c2c(nn1-c1ccc(F)cc1)CSC2 | i | -3.8% | 0.69 |
| COCCN(C(=O)Nc1ccc(OC)cc1OC)C1CCN(C(C)=O)CC1 | i | 2.8% | -0.65 |
| COc1cccc(-n2c(SCC(=O)OC(C)C)nnc2-c2cccnc2)c1 | i | 6.6% | -0.2 |
| CC(=O)N(Cc1cccnc1)Cc1cc2ccccc2[nH]c1=O | i | 0.1% | 1.1 |
| COC(=O)c1sccc1NC(=O)c1cccc(OC)c1 | i | -2.6% | / |
| O=C(CSc1nnc(-c2ccc(Br)cc2)o1)Nc1cccc2ccccc12 | i | -6.2% | -0.23 |
| O=C(c1noc2c1CCc1ccccc1-2)N1CCOCC1 | i | -6.2% | 1.6 |
| CN(C)S(=O)(=O)N1CCN(c2ccccc2Cl)CC1 | i | -2.3% | / |
| CCOC(=O)C1CCN(C(=O)c2cccnc2Cl)CC1 | i | 4.6% | / |
| Cc1c(O)ccc(C(=O)CN2C(=O)c3ccccc3C2=O)c1O | i | 1.9% | 0.53 |
| CCOC(=O)CSc1nnc(NCC(=O)OC)c(=O)[nH]1 | i | 1.5% | / |
| CCCC(=O)Nc1nc2ccc(S(N)(=O)=O)cc2s1 | i | 0.7% | 0.24 |
| CC1=C(C(=O)Nc2ccccc2)C(c2ccc(C)o2)n2c(s/c(=C/c3ccccc3)c2=O)=N1 (stereo unspecified) | i | 0.1% | / |
| CN1CCN(Cc2nc3c(c(=O)[nH]c(=O)n3C)n2Cc2c(F)cccc2Cl)CC1 | i | 4.5% | -0.34 |
| Cc1ccc(NC(=O)CS(=O)CC(=O)NCC2CCCO2)cc1 (stereo unspecified) | i | -6.7% | 1.4 |
| Cn1ncc(N=Cc2ccccc2)c1C(N)=O | i | -3.5% | -0.61 |
| O=C(CCc1ccc(S(=O)(=O)N2CCOCC2)cc1)Nc1nccs1 | i | 1.7% | / |
| C=CCN(Cc1cccc(OC)c1OC)S(=O)(=O)N(C)C | i | -2.1% | / |

The list goes on.
| mol | MT1-MMP promoter | Hsc70 ATP site | WNV protease inh |
| --- | --- | --- | --- |
| Cc1ccc(-c2nc3ccccc3c(=O)n2CCCn2ccnc2)cc1 | i | -0.3% | 1.4 |
| CC(C)N1CC(C(=O)Nc2nc3ccccc3s2)CC1=O (stereo unspecified) | i | 4.1% | -0.81 |
| COc1ccc(-n2c(=O)c3c4c(sc3n3cnnc23)CC(C)CC4)cc1 (stereo unspecified) | i | -3.2% | -0.36 |
| C=CCNS(=O)(=O)c1ccc(OCC(=O)OC)cc1 | i | 0.9% | 0.07 |
| Cc1ccc(S(=O)(=O)Nc2c3ccccc3nc(=O)n2-c2ccccc2)cc1 | i | 4.6% | / |
| O=C(Nc1c(F)cc(F)cc1Br)c1cc(-c2ccco2)on1 | i | -7.8% | 0.57 |
| Cc1cccc(OCc2nnc3n2CCCCC3)c1 | i | 1.0% | 1.5 |
| COc1ccc(S(=O)(=O)N2Cc3ccccc3CC2C(=O)N2CCOCC2)cc1OC (stereo unspecified) | i | -2.5% | -0.69 |
| CC(=O)N1C(=O)N(C(C)=O)C2C1N(C(C)=O)C(=O)N2C(C)=O (stereo unspecified) | i | 6.0% | 0.26 |
| COc1ccc(N2C(N)=NC(N)=NC2(C)C)cc1 | i | 0.7% | / |
| Cc1ccc(CNC(=O)c2ccccc2NS(C)(=O)=O)cc1 | i | 2.8% | 0.81 |
| O=C(CSCc1nc2ccccc2[nH]1)N1CCN(c2ccc(F)cc2)CC1 | i | 2.1% | 0.35 |
| Nc1c(C(=O)Nc2ccc(Cl)cc2)oc2ccccc12 | i | 1.5% | 0.004 |
| c1csc(-c2ncc3ccccn23)c1 | i | 0.1% | -0.69 |
| CN(C)S(=O)(=O)c1cccc(C(=O)Nc2ccccc2Cl)c1 | i | 0.7% | / |
| CCOC(=O)C1C(=O)N(C(=O)c2ccc(OC)cc2)CC1c1ccccc1 (stereo unspecified) | i | 2.7% | -0.5 |
| CC(=O)Nc1sc2c(c1C(c1cccs1)N1CCOCC1)CCCC2 (stereo unspecified) | i | 6.9% | 1.2 |
| CCOc1cc(N2CCOCC2)c(OCC)cc1NC(=O)COc1ncnc2ccccc12 | i | 0.7% | / |
| NC(N)=N/N=C/c1ccccc1 | i | 0.7% | / |
| Cc1ccc(C(=O)OCC(=O)Nc2ccccc2C(F)(F)F)cc1S(=O)(=O)N1CCOCC1 | i | 0.8% | / |
| c1ccc(CCNc2nnnn2-c2ccccc2)cc1 | i | -2.7% | / |
| Cc1noc(C)c1CSc1nnc2ccccn12 | i | -4.2% | / |
| CN1c2ccccc2-c2nc3ccccc3n2C1c1ccccn1 (stereo unspecified) | i | 0.5% | 2.3 |
| Cc1c(Br)cccc1NC(=O)c1sccc1-n1cccc1 | i | 3.6% | / |
| CC(NC(=O)c1cccs1)C(=O)NC1=NCCS1 (stereo unspecified) | i | -2.3% | -0.26 |

Carrying on.
| mol | MT1-MMP promoter | Hsc70 ATP site | WNV protease inh |
| --- | --- | --- | --- |
| COCCNC(=O)CN(C(=O)CCC(=O)Nc1nccs1)c1ccccc1OC | i | -5.1% | -1.2 |
| COc1ccc(C2C(C(=O)O)CC(=O)N2C2CCCCC2)cc1 (stereo unspecified) | i | 1.1% | -0.6 |
| CCOC(=O)CC1Sc2ccccc2NC1=O (stereo unspecified) | i | -1.3% | -1.2 |
| COC(=O)c1ccc(CSc2nnc3c(Cl)cc(Cl)cn23)o1 | i | 4.7% | -0.29 |
| [O-][n+]1onc2c3ccnnc3ccc21 | i | 7.2% | / |
| O=P(O)(O)CP(=O)(O)O | i | -1.7% | 2.6 |
| O=C(CN1CCOCC1)Nc1ccc(OCc2ccccc2)cc1 | i | -1.5% | 0.45 |
| CCOC(=O)N1CCN(S(=O)(=O)c2ccc(C)c(C)c2)CC1 | i | 8.0% | -0.8 |
| COCCCn1c(-c2ccco2)nc2ccccc2c1=O | i | -0.9% | -1.1 |

Complete entries from above:
O=C(CN1CCOCC1)Nc1ccc(OCc2ccccc2)cc1 across the screens: MT1-MMP promoter: i; Hsc70 ATP site: -1.5%; WNV protease inh: 0.45
Nc1c(NCc2ccccc2F)c(=O)[nH]c(=O)n1Cc1ccccc1 across the screens: MT1-MMP promoter: i; Hsc70 ATP site: 10%; WNV protease inh: 0.82

Compound activity from PubChem BioAssay.

Only part of the results is shown. The share of hits here may be higher or lower than overall.
